Compound activity: PubChem, Fisher Drug Discovery Resource Center
NPYLR7 ag: agonists of mosquito NPYLR7 receptor, primary screen, cell-based, Aedes aegypti, calcium fluorescence, mosquito biting behavior | actives 0.15% (n = 270,000) | Aedes aegypti neuropeptide Y-like receptor 7 (NPYLR7) | AID 1259423, 2018 | HEK293T NPYLR7/Galpha15, GCaMP6s calcium fluorescence | activation, % at 10 µM; in the data active means activation above about 40%;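 further: 0% = vehicle and 100% = reference agonist at the receptor; some compounds past the cut are filed as inactive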
NPYLR7 ag max-min: also measured in NPYLR7 ag; calls as there; activation, %; measured here: Max-Min RFU normalised activation; some inactives read as strong as hits;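 span of the calcium signal over five minutes; 0% = vehicle and 100% = native peptide agonist; compound fluorescence can raise it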
* = called active by the depositor; & = joins results of further samples.

Below each compound: NPYLR7 ag, NPYLR7 ag max-min
#1 Cc1cccc(Oc2cc(N3CCN(c4cc(Cl)ccc4C)CC3)ncn2)c1
    17, 21
#2 CCCCc1ncc(CN2CCC(CCC(=O)Nc3ccc(OC)cc3OC)CC2)[nH]1
    11, 8
#3 Cc1cccnc1C(C)NC(=O)CSc1nc2ccccc2c(=O)[nH]1 (configuration not stated)
    16, 15
#4 CCOCCCN(CC(=O)N(Cc1cccn1Cc1ccc(F)cc1)C1CCCCC1)C(=O)c1cccc([N+](=O)[O-])c1
    -5, -2
#5 Cc1nc(-c2ccc(C(=O)OCc3ccccn3)cc2)n[nH]1
    22, 12
#6 CS(=O)(=O)NC1CCN(C2CCc3c(Cl)cccc32)CC1 (configuration not stated)
    -20, -22
#7 CCN=c1scc(-c2ccc(C)cc2)n1N=Cc1ccc2c(c1)OCO2
    -7, -15
#8 Cc1ccc(CNC(=O)Nc2cn(C)c3ccccc23)cc1
    3, -4
#9 C=CCn1nc(C)c(-c2c(-c3ccccc3)ncn2Cc2ccccn2)c1C
    3, -1
#10 CC(C)(C)C(=O)NCC1CN(c2ccc3c(c2)OCO3)C(=O)O1 (configuration not stated)
    3, 1
#11 CC(O)CN(Cc1ccccc1)CC1CC(c2ccc(Cl)cc2)=NO1 (configuration not stated)
    -3, -2
#12 Cn1nc(C(C)(C)C)cc1Nc1cc2c(cn1)nc(-c1ccco1)n2C
    1, -1
#13 CC(Cn1cccn1)C(=O)N1CCC(CCC(=O)Nc2ccc3c(c2)OCCO3)CC1 (configuration not stated)
    8, 7
#14 COC(C)c1nc(CSc2cn[nH]n2)cs1 (configuration not stated)
    -3, -7
#15 C=Cc1ccc(CC2(C)C(=O)Nc3cccc(Cl)c32)cc1 (configuration not stated)
    1, 0
#16 CCCC(=O)OCC(O)CN(CCC(C)C)Cc1c(-c2ccccc2F)noc1N1CCOCC1 (configuration not stated)
    29, 26
#17 Cc1[nH]cnc1-c1nccn1CC1Cc2ccccc2CN1C (configuration not stated)
    2, 2
#18 COc1ccc2c(Cl)c(C(=O)n3cnc4ccccc43)sc2c1
    7, 6
#19 CC(C)CNC(=O)NC(=O)CSc1ncnc2sc3c(c12)CCC3
    -2, -3
#20 Cn1c(N)c(C(=O)COC(=O)CCS(=O)(=O)c2ccccc2)c(=O)n(C)c1=O
    2, 0
#21 CC(C)c1ccc(-c2nn3nnc4ccccc4c3nc2=O)cc1
    -3, 45
#22 Cc1cc(C)cc(N=C2NC(=O)/C(=C\c3cc([N+](=O)[O-])cc([N+](=O)[O-])c3O)S2)c1
    -7, -9
#23 CC(C)N(Cc1cccnc1)C(=O)c1cccc(NC(=O)C2CC2)c1
    16, 11
#24 Cc1cc(C(=O)NCc2ccccc2CN2CC(C)CC(C)C2)on1 (configuration not stated)
    -2, -3
#25 CNC(=O)CN(Cc1cccs1)[C@H]1[C@H](O)[C@@H]2O[C@H]1c1ccccc12
    4, 5
#26 CCCCC(C)n1[nH]c(=O)c2c(C)cc(C)nc21 (configuration not stated)
    -2, -4
#27 CC(C)CN(CC(=O)N1CCc2sccc2C1c1ccc(Cl)cc1)C(=O)c1cccc(F)c1 (configuration not stated)
    4, 17
#28 NC(CCOc1ccccc1)c1ccc(Cl)cc1 (configuration not stated)
    1&9, -1&8
#29 COC(=O)C(Cc1c[nH]c2ccccc12)N=Cc1c(O)n(-c2ccccc2Cl)c(=O)[nH]c1=O (configuration not stated)
    39, 56
#30 CCN1C(=S)NC(c2ccc(NC(=O)Nc3ccccc3OC)cc2)C(C(=O)OCC(C)C)=C1C (configuration not stated)
    -2, -2

Copied from the list:
#25 – NPYLR7 ag = 4
#14 – NPYLR7 ag = -3
#15 – NPYLR7 ag max-min = 0

Results in sequence from above:
NPYLR7 ag max-min for nos. 4 to 11 → -2, 12, -22, -15, -4, -1, 1, -2
NPYLR7 ag for nos. 4 to 11 → -5, 22, -20, -7, 3, 3, 3, -3

Remaining list, next part
Below each compound: NPYLR7 ag, NPYLR7 ag max-min
#31 COCCOc1nc(-c2ccc(C)cc2)n(-c2ccc(NC(=O)C(c3ccccc3)c3ccccc3)cc2)n1
    0, 13
#32 CCOc1ccccc1Oc1ccccc1C(=O)N(C)CC#N
    5, 3
#33 CC(CO)(NC(=O)Nc1cc(-c2ccco2)ccc1F)C1CC1 (configuration not stated)
    8, 6
#34 O=C1CC(N2CCN(c3ncccn3)CC2)C(=O)N1c1ccc(Cl)cc1 (configuration not stated)
    -5, -7
#35 Cc1ccc2nsnc2c1S(=O)(=O)NCc1ccc2c(c1)OCO2
    5, 2
#36 COc1cccc(CO[C@]2(C(=O)NCC(C)C)CC(OCc3cccc(Cl)c3)[C@H](O)[C@H](O)C2)c1 (some centres not stated)
    -4, -3
#37 Cc1cc(OCC(=O)N2CCN(c3ccc4nnc(C)n4n3)CC2)ccc1Cl
    0, 5
#38 COc1cc(OC)cc(C(=O)N(Cc2ccc(OS(=O)(=O)c3cccc(C(F)(F)F)c3)cc2)C(C)C)c1
    14, 13
#39 CN(C)c1ccc(N)cc1CN(CC1CCCO1)S(=O)(=O)c1ccc(F)cc1 (configuration not stated)
    -1, -4
#40 C=CCN1CCN(c2ccc3c(c2)CCC3)C(=O)C1C (configuration not stated)
    0, 1
#41 O=C(Nc1sc2c(c1C(=O)NCC1CCCO1)CCCC2)c1ccccc1[N+](=O)[O-] (configuration not stated)
    2, 0
#42 O=C1CN(c2ccc(C(=O)N3CCCN(c4ncccn4)CC3)cn2)CCN1
    -1, 20
#43 COc1cc(/C=N\NC(=O)COc2cccc3cccnc23)ccc1Oc1ccc([N+](=O)[O-])cc1[N+](=O)[O-]
    -9, -15
#44 Cc1cc(Oc2cnn(C)c(=O)c2Nc2cccc(C(=O)NCCc3ccccn3)c2)ccc1Cl
    -6, 2
#45 O=C1c2cccnc2O[C@@H](COCc2ccccc2)CN1CC1CC1
    -3, 5
#46 C=CCOc1cccc(C2c3c(oc4ccc(C)cc4c3=O)C(=O)N2c2nc(C)cs2)c1 (configuration not stated)
    5, 4
#47 CCc1cc(NCCc2nncn2CC)nc(N2CCOCC2)n1
    0, 1
#48 CN(CC1Cc2ccccc2O1)C(=O)c1cn(-c2ccccc2)nn1 (configuration not stated)
    -17, -21
#49 Cc1nc(CN2CCN(c3nc4nonc4nc3NC3CCCC3)CC2)cs1
    3, 2
#50 CC(C)N(Cc1ccc2c(c1)OCO2)Cc1nc(C(=O)N2CCOCC2)co1
    15, 16
#51 O=C(Nc1cc(C(F)(F)F)ccc1N1CCCC1)c1ccn[nH]1
    -2, -6
#52 COc1ccc(OC)c(CC(=O)N2CCC(Cc3nncn3C)CC2)c1
    -2, -7
#53 CCOC(=O)c1csc(CN(C(=O)Nc2c(C(C)C)cccc2C(C)C)C2CC2)n1
    6, 16
#54 COC(=O)c1ccc(C(=O)OC)c(NC(=O)c2nn(-c3ccc(C)cc3)c(=O)cc2OC)c1
    9, 4
#55 O=S(=O)(Nc1cc(S(=O)(=O)N2CCOCC2)ccc1O)c1ccc2c(c1)CCC2
    -1, 38
#56 CCOc1ccc(S(=O)(=O)Nc2ccc(Nc3ccc(-n4ccc(C)n4)nn3)cc2)cc1
    -3, -9
#57 Cc1cc(C=C2C(=O)NC(=S)NC2=O)c(C)n1-c1cccc([N+](=O)[O-])c1
    25, 2
#58 O=C1CN(C(=O)c2csc(Nc3ccc(OC(F)F)cc3)n2)CCN1
    10, 0
#59 CC1=NN(C)C(=O)C2C(c3c(C)cccc3C)=NOC12 (configuration not stated)
    -2, -5
#60 O=C(c1ccsc1)N1CCOC(CC2CCCCC2)C1 (configuration not stated)
    5, 2

Record cards, as listed above. Screens in order: NPYLR7 ag	NPYLR7 ag max-min
`CCc1cc(NCCc2nncn2CC)nc(N2CCOCC2)n1` reads 0	1
`CN(C)c1ccc(N)cc1CN(CC1CCCO1)S(=O)(=O)c1ccc(F)cc1` (configuration not stated) reads -1	-4
`COc1cc(/C=N\NC(=O)COc2cccc3cccnc23)ccc1Oc1ccc([N+](=O)[O-])cc1[N+](=O)[O-]` reads -9	-15
`O=C(c1ccsc1)N1CCOC(CC2CCCCC2)C1` (configuration not stated) reads 5	2
`CC1=NN(C)C(=O)C2C(c3c(C)cccc3C)=NOC12` (configuration not stated) reads -2	-5

Continued:
Below each compound: NPYLR7 ag, NPYLR7 ag max-min
#61 Cc1nc(-c2ccsc2)sc1C(=O)NC(C)c1ccccc1 (configuration not stated)
    1, 36
#62 Cc1ccc(S(=O)(=O)N=C2NC(=O)CS2)cc1
    -3, -6
#63 CCCN(CCC)Cn1c(O)c(N=NC(=O)c2ccncc2)c2cc(Br)ccc21
    -5, -12
#64 O=C(CSc1ncnc2c1oc1ccccc12)c1cc2ccccc2o1
    -6, -6
#65 CCOC(=O)C(C)Oc1cccc2c(=O)n(CC(=O)Nc3ccc4c(c3)OCCO4)ccc12 (configuration not stated)
    -16, -21
#66 CCC(C)N(Cc1ccccc1)C(=O)c1cc(OC)c(OC)cc1OC (configuration not stated)
    7, 6
#67 CCOCCSc1nc(-c2ccccc2F)nc2c1c(=O)n(C)c(=O)n2C
    -4, -9
#68 COc1cc(OC)cc(-c2nc(-c3cc4cc(OC)ccc4[nH]c3=O)no2)c1
    9, 1
#69 O=C(NCc1ccccc1)C1CCN(S(=O)(=O)c2ccc3c(c2)CCC3)CC1
    1, 3
#70 COc1ccccc1OCc1nc(CN(C(=O)C2CCCC2)C2CC2)cs1
    11, 13
#71 O=C(C1CNCCN1C(=O)Cc1ccc2ccccc2c1)N1CCCC1 (configuration not stated)
    6, 1
#72 CC(C)(C)N=C1NN=C(c2ccc(OC(F)F)cc2)CS1
    3, 2
#73 COCCCNC(=O)c1cc(NC(=O)C(C)(C)C)ccc1N1CCN(c2ccccc2OC)CC1
    22, 27
#74 CC(NC(=O)c1ccccc1F)c1ccc2c(c1)OCCO2 (configuration not stated)
    -1, 44
#75 O=C(NC1CCCc2ccccc21)C(C1CCCC1)N1CCN(C(=O)c2ccc(C(F)(F)F)cc2)CC1 (configuration not stated)
    -1, 2
#76 O=C(Cn1nc(-c2ccc(F)cc2)c2sc(N3CCCC3)nc2c1=O)Nc1cccc(F)c1
    -3, -7
#77 CCCCCCc1ccc(C(=O)N(CCCOC)C(CC)c2nc3ccccc3c(=O)n2-c2ccc(OC)cc2)cc1 (configuration not stated)
    13, 6
#78 COc1cccc(CCc2nnc(CCC(=O)NC3CCCC3)o2)c1
    3, 0
#79 CN(C)C(CNC(=O)C1CCN(S(=O)(=O)c2ccccc2C(F)(F)F)CC1)c1cccs1 (configuration not stated)
    -2, -1
#80 CN(CC(=O)N1N=C(c2ccccc2F)CC1c1ccccc1)C1CCCCC1 (configuration not stated)
    12, 11
#81 COCc1ncc(CN(C)Cc2csc(-c3ccccc3)n2)cn1
    3, 1
#82 O=c1cnc2ccccc2n1Cc1c(Cl)cccc1Cl
    3, 9
#83 CCNC(=O)NC1CCC(OC(=O)CCCc2ccc(C)cc2)CC1 (configuration not stated)
    15, 9
#84 COc1ccc(Cl)c2c1NC(c1cccc([N+](=O)[O-])c1)C1CC=CC21 (configuration not stated)
    -6, -7
#85 O=S1(=O)CCN2C(=N1)Oc1ccc(S(=O)(=O)N3CCCC3)cc12
    1, 3
#86 N[C@@H]1CC[C@@H](NC(=O)c2ccc3c(c2)ncn3CCO)C1
    -4, -3
#87 CCOC(=O)c1sc(N)c(C#N)c1COC(=O)c1ccc(Cl)s1
    1, -2
#88 NC1=NC(c2ccc(F)cc2)n2c(nc3ccccc32)N1 (configuration not stated)
    9, 2
#89 c1cc(-c2noc(CN(CC3CCCO3)CC3CCCO3)n2)cs1 (configuration not stated)
    0, 16
#90 Cc1nnc(SCC(=O)NCCCc2nc3ccc(Cl)cc3[nH]2)s1
    7, -1

The closing 2 entries of the section before come first, to join the parts:
Below each compound: NPYLR7 ag, NPYLR7 ag max-min
#89 c1cc(-c2noc(CN(CC3CCCO3)CC3CCCO3)n2)cs1 (configuration not stated)
    0, 16
#90 Cc1nnc(SCC(=O)NCCCc2nc3ccc(Cl)cc3[nH]2)s1
    7, -1
#91 CS(=O)(=O)NCCCn1nc(-c2cccs2)ccc1=O
    2, 0
#92 CCN(CC)C(=O)Oc1ccc2c(ccn2Cc2ccccc2)c1NC(=O)c1ccc(C(F)(F)F)c(F)c1
    3, -1
#93 CCN(C1=NC2CS(=O)(=O)CC2S1)c1ccc(OC)cc1 (configuration not stated)
    4, 1
#94 CCOC(=O)c1cc(C(C)(C)C)n(C2CCN(S(=O)(=O)c3ccccc3OC(F)(F)F)CC2)n1
    -5, -7
#95 CCNC(=O)C1(C)CCCCN1Cc1cccc(OC(=O)c2ccccc2)c1 (configuration not stated)
    1, 2
#96 COC(=O)c1sccc1NC(=O)CSc1ccccc1
    0, -1
#97 Cc1cc(C)c(C(=O)N2CSCC2C(=O)NC(C)C(C)C)o1 (configuration not stated)
    -12, -14
#98 CC(C)c1cc(N(C)CCNS(=O)(=O)c2cnn(C)c2)n[nH]1
    5, 3
#99 CCOC(CNC(=O)c1cn(C)c2c(=O)n(-c3ccc(Cl)cc3)c(=O)[nH]c12)OCC
    1, 0
#100 CC(c1nc(CC2CCN(C)CC2)no1)N1CCN(C)CC1 (configuration not stated)
    6, 4
#101 CC(=O)c1cc(C(=O)OCC(=O)Nc2cc(C)cc(C)c2)c2ccccn12
    8, -6
#102 COc1cccc(C(CN2CCN(C(=O)c3cccc4ccccc34)CC2)OCc2ccc(C)cc2)c1 (configuration not stated)
    -4, 1
#103 COC(=O)N1C[C@H]2[C@@H](O)[C@@H]3C[C@@H](C(=O)O)[C@@H](O3)[C@H]2C1
    4, 15
#104 Cc1cccc(C)c1OCCNC(=O)C(Cc1ccccc1)NC(=O)c1ccccc1 (configuration not stated)
    1, 7
#105 O=C(Cn1nc2c(c1NC(=O)c1ccccc1Cl)CSC2)NCC1CCCO1 (configuration not stated)
    3, 13
#106 COc1cc(OC)c(NC(=O)c2cccs2)cc1Cl
    -7, -11
#107 CCOC(=O)CCC(=O)NCCC(=O)N1CCC(C(=O)Nc2ccc(OC)cc2)CC1
    25, 28
#108 O=C(NCc1ccc(C(=O)N2CCCC2)cc1)c1sccc1-c1ccccc1
    -3, -4

A portion of the library, so the mix of outcomes need not match the whole.
